Compound activity as filed in PubChem BioAssay.
TRPML1 agonist: agonists of human TRPML1 channel. TRPML1-expressing cells, Ca2+ dye fluorescence, FDSS; host cell line not named in the record; reference of the full effect not given here. 410,000 compounds, 0.12% hits. Q9GZU1. activation, % (no concentration beside the values); in the data active = activation above about 50%; inconclusive = about 30% to 50%; inactive = below about 30%; note: 0% is about no effect; the text of the record puts the active cut at 80%
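In this qHTS format, compounds were pin-transferred onto Ca8-dye-loaded TRPML1-DL cells induced with Tet overnight, and intracellular Ca2+ fluorescence was recorded kinetically for 110 s after a 10 s baseline. A subsequent 4uM final 54-4 (EC80) addition followed by a second 110 s read served as the antagonist phase.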
CtBP-E1A inh: inhibitors of CtBP/E1A interaction; activity change, % (no concentration beside the values); 340,000 compounds, 0.49% hits; AlphaScreen GST-E1A/His-CtBP binding, 1536-well; hits give low values; control for the full effect not named in the record; AID 651724; in the data active means activity change below about -65%; inconclusive means about -30% to -65%; inactive means above about -30%; note: % is set by controls: 0 for no effect and ±100 for the full control effect
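Homogeneous bead-based format: GST-tagged E1A captured on glutathione donor beads, His-tagged CtBP on nickel acceptor beads; compounds precede bead addition by 2 h at 37 °C.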
TRPML1 blocker: inhibitors of human TRPML1 channel | Q9GZU1 | TRPML1-inducible cells, Ca2+ dye fluorescence, FDSS; hits give low values; inhibition of EC80 agonist-evoked calcium signal | activity change, negative = inhibition, % (concentration not given with the values) | 390,000 compounds, 0.02% hits; in the data active means activity change below about -50%; inconclusive means about -30% to -50%; inactive means above about -30%;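 note: stimulus is agonist 54-4 at its EC80 concentration; % is set by controls: 0 for no effect and ±100 for the full control effect; the text of the record puts the active cut at -80%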
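Calcium fluorescence in TRPML1-DL cells induced overnight with Tet: a 110 s read after compound pin addition, then a 110 s antagonist read after challenge with 54-4 at 4 uM final (EC80).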
TRPV1 potentiator: human TRPV1 potentiation; Q8NER1; TRPV1-expressing cells, Fluo-8 calcium influx, capsaicin EC20 potentiation; host cell line not named in the record; control for the full effect not named in the record; potentiation, % at 8.33 µM; 320,000 compounds, 0.02% hits; active means potentiation above 80%; inconclusive means 30% to 80%; inactive means below 30%; note: 0% is about no effect
Target sequence (Q8NER1 whole entry, looked up): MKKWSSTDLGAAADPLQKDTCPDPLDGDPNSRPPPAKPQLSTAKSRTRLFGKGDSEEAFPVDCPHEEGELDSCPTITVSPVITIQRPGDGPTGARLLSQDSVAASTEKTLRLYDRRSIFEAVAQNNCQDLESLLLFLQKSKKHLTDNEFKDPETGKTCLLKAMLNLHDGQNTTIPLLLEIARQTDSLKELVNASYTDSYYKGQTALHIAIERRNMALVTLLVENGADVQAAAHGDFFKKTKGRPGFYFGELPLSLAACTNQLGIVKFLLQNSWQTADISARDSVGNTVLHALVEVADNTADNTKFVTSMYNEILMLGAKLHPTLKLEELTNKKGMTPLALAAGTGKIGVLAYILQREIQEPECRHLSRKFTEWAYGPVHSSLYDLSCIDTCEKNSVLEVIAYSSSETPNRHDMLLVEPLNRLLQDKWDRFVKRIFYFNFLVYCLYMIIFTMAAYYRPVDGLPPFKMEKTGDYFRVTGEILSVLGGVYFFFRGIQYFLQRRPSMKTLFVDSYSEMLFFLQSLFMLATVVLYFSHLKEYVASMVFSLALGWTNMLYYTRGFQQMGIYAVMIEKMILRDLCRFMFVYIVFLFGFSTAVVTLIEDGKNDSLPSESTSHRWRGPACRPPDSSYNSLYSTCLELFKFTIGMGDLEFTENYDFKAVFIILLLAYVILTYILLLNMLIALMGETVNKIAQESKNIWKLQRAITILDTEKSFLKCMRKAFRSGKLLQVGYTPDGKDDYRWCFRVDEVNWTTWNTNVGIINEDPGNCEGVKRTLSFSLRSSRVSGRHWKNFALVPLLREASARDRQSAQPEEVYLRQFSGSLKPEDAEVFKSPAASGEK
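Cells expressing TRPV1 were dye-loaded with Fluo-8 and read kinetically: 10 s baseline, 3 min after compound (agonist portion), then 2 min after EC20 capsaicin (allosteric enhancer portion). Calcium-bound dye fluorescence at 480/520 nm.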
D2 PAM: potentiates the human D2 dopamine receptor allosterically. DiscoveRx D2 beta-arrestin cells, luminescence, 90 min; 100% = 57 uM dopamine signal. potentiation, % (test concentration not listed). 360,000 compounds, 0.23% hits; active = potentiation of 50% or more; inconclusive = 30% to 50%; inactive = 30% or less;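 note: compound concentration not given in the record; tested on top of an EC20 dose of dopamine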
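PathHunter D2 cells, attached overnight at 37 deg C, received compound in DMSO plus dopamine at EC20 (50 nM final) for 90 min at 37 deg C. Beta-arrestin recruitment was read as luminescence after 1 h with detection reagent at ambient temperature.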
Six1-Eya2 inh: blocks human Six1 binding to Eya2; 360,000 compounds, 0.56% hits; AID 651725; Q15475+O00167; activity change, % (no concentration beside the values); AlphaScreen GST-Six1/His-Eya2 binding, biochemical; hits give low values; control for the full effect not named in the record; in the data active = activity change below about -65%; inconclusive = about -30% to -65%; inactive = above about -30%; note: % is set by controls: 0 for no effect and ±100 for the full control effect
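GST-Six1 + His-Eya2 (5X stock: 250/500 nM); Tris pH 8.0, 300 mM NaCl, 0.05% BSA, 0.02% Tween 20; GSH donor/Ni acceptor beads; 1 h 37 °C dark; AlphaScreen readout.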
Active calls of the source: *; ? = inconclusive; / = not tested or not shown.

Compound	TRPML1 agonist	CtBP-E1A inh	TRPML1 blocker	TRPV1 potentiator	D2 PAM	Six1-Eya2 inh
Cc1cc(OCC(=O)NCC2CCC(C(=O)O)CC2)c2c(C)cc(=O)oc2c1 (stereo not drawn)	/	0	/	4	-9	0
O=S(=O)([O-])CCC[N+]1(CC#Cc2ccccc2)CCCCC1	0.0	/	24	-6	-8	0
CCCCn1c(SCC(=O)Nc2cc(C(F)(F)F)cc(C(F)(F)F)c2)nnc1C(CC)N(C)C (stereo not drawn)	7.2	-11	1	-1	-17	-2
CC(=O)Oc1ccc(-c2csc(Nc3ccc(S(N)(=O)=O)cc3)n2)cc1	-0.6	-11	7	-2	2	-4
COc1ccccc1OCCNC(=O)CCNC(=O)c1ccccc1OC	-1.0	/	6	7	9	-1
COC(=O)c1cc(-c2ccc(OC)cc2)nc2nc(SC)[nH]c(=O)c12	-0.5	14	-5	8	4	0
CC(=O)c1cc(-c2ccccc2)n(CC(=O)NC2CCCC2)c1C	0.4	4	8	-8	-1	-1
O=C(CSc1cn[nH]n1)Nc1nc2ccccc2s1	0.0	10	2	1	0	6
CC1(C)CC(=O)N(c2ccccc2)C1(C)O (stereo not drawn)	0.9	4	-5	5	-14	10
CCc1ccc(C2=C/C(=C/c3cccnc3)C(=O)O2)cc1	-0.2	4	-9	5	-25	1

New compounds follow:
Compound	TRPML1 agonist	CtBP-E1A inh	TRPML1 blocker	TRPV1 potentiator	D2 PAM	Six1-Eya2 inh
CC(=C/c1ccccc1)/C=N/n1cnnc1	-0.2	8	7	-5	2	-3
C=C1CSc2nc(=O)c3c4c(sc3n21)CCCC4	-0.9	?	1	27	5	?
COc1ccc(N2C(=O)C3NN=C(C(=O)OCc4ccccc4)C3C2=O)cc1 (stereo not drawn)	1.0	-2	8	8	-3	0
CCCc1cc(=O)[nH]c(SCC(=O)NC)n1	0.0	6	-2	-8	-9	5
COc1ccc(COc2ncnc3ccc(Br)cc23)cc1F	-0.7	-24	4	0	-1	-18
CN(C(=O)c1ccc(NC(=O)Cc2cccc(NC(=O)C3CCN(C(=O)CCc4ccccc4)CC3)c2)cc1)C1CCCC1	-0.1	-2	-1	23	-8	-4
Cc1ccc(N2C(=O)/C(=C/c3cccnc3)SC2=S)cc1	-0.3	-4	3	7	0	3
CC(C)CCNC(=O)c1c[nH]c2ccc(S(=O)(=O)N3CCC4(CC3)OCCO4)cc2c1=O	0.3	7	7	-15	3	1
COc1ccc(-c2c(-c3cc(OC)cc(OC)c3)n(C)c3ccc(-c4cc(F)cc(OC)c4)cc23)cc1	-0.5	-18	-13	-1	-3	-9
COc1ccc(-n2cc(CNCCCn3ccnc3)c(-c3cccc(F)c3)n2)cc1	-0.2	-6	1	-10	-4	-14

As a short view, some entries already given:
Compound	TRPML1 agonist	CtBP-E1A inh	TRPML1 blocker	TRPV1 potentiator	D2 PAM	Six1-Eya2 inh
CC(=C/c1ccccc1)/C=N/n1cnnc1	-0.2	8	7	-5	2	-3
C=C1CSc2nc(=O)c3c4c(sc3n21)CCCC4	-0.9	?	1	27	5	?
COc1ccc(N2C(=O)C3NN=C(C(=O)OCc4ccccc4)C3C2=O)cc1 (stereo not drawn)	1.0	-2	8	8	-3	0
CCCc1cc(=O)[nH]c(SCC(=O)NC)n1	0.0	6	-2	-8	-9	5
COc1ccc(COc2ncnc3ccc(Br)cc23)cc1F	-0.7	-24	4	0	-1	-18

Following part
Compound	TRPML1 agonist	CtBP-E1A inh	TRPML1 blocker	TRPV1 potentiator	D2 PAM	Six1-Eya2 inh
O=CN1CCN(S(=O)(=O)c2ccc(Cl)c(C(=O)O)c2)CC1	-0.7	8	8	-6	-1	-7
Cc1oc(C(C)(C)C)cc1C(=O)N1CCN(c2ccc(C(F)(F)F)cn2)CC1	-0.7	/	-14	/	-17	-22
CC(C)[C@H](NC(=O)[C@@H]1Cc2ccccc2CN1)C(=O)NC1CCCCC1	0.8	-1	9	3	-14	6
CC(/C=C/c1ccccc1)=N\NC(=O)c1ccc2c(c1)OCCO2	-0.3	-9	-20	20	0	-3
CCc1nnc(NC(=O)c2c(-c3ccccc3)noc2C)s1	0.1	2	-28	-3	-3	19
CC(C)c1ccc(C(=O)NCCCc2ccccc2)cc1	0.4	11	10	0	-23	8
CCOC(=O)CC(=O)CSc1nc2cc(C)ccc2cc1C	2.0	34	-5	-5	-31	40
O=S(=O)(CCc1ccccc1)/N=C/c1cccs1	0.0	12	9	-3	-7	0
O=S(=O)(NCCc1ccccc1)c1cccc2nsnc12	0.5	2	-1	16	7	-2
S=C(NCc1ccc(Cl)c(Cl)c1)Nc1ccc2c(c1)OCO2	-0.1	6	-6	-1	-6	0

New compounds follow.
Compound	TRPML1 agonist	CtBP-E1A inh	TRPML1 blocker	TRPV1 potentiator	D2 PAM	Six1-Eya2 inh
O=C(NCCc1ccccc1)c1cccc(Br)c1	-1.2	/	-9	1	-4	4
CCCN1Cc2cccc(C(=O)NCc3ccccc3)c2C1=O	1.6	-11	-9	-12	-11	-1
Cc1ccccc1NC1C=CS(=O)(=O)C1 (stereo not drawn)	-0.4	7	7	8	0	1
COc1ccc(-c2nn(CCC(=O)O)cc2/C=C2\SC(N)=NC2=O)cc1	1.0	-4	0	20	-9	0
CCOC(=O)CCSCC(=O)N1N=C(c2cccs2)CC1c1ccc(C)cc1 (stereo not drawn)	2.4	0	14	-6	-2	8
CC12CCC(=O)N1C(C(=O)Nc1cc(C(F)(F)F)ccc1N1CCCCC1)CS2 (stereo not drawn)	2.0	-4	-11	-19	-11	4
CC(C)C(c1nnnn1C1CCCC1)N1CCN(c2ccccc2F)CC1 (stereo not drawn)	0.3	5	40	-2	-2	1
Cc1nccc(-c2sc(-c3cccs3)nc2C)n1	-1.0	/	0	-7	-15	7
CN(C)CCOc1ccccc1C(C)(C)C	-0.6	0	1	1	-22	-2
CCc1noc(C)c1C(=O)Nc1nc(-c2cc(OC)ccc2OC)cs1	1.0	-10	9	8	-3	-5

The listing continues:
Compound	TRPML1 agonist	CtBP-E1A inh	TRPML1 blocker	TRPV1 potentiator	D2 PAM	Six1-Eya2 inh
COc1ccc(C(=O)C2CCN(CC(=O)Nc3cc(C)cc(C)c3)CC2)cc1	3.1	20	20	-1	-7	4
Cc1[nH]c2ccccc2c1C(C[N+](=O)[O-])c1cccs1 (stereo not drawn)	1.2	-1	8	-4	4	0
CC(C)c1nnc(NC(=O)CCC(=O)N2CCN(C3c4ccccc4-c4ccccc43)CC2)s1	0.1	-5	9	1	6	-14
COc1ccc(-c2ccc3c(c2)S(=O)(=O)c2cccc(C(=O)O)c2C3=O)cc1OC	0.2	-23	1	9	-5	-18
Cc1ccc(SCC(=O)Nc2nnc(C(C)(C)C)s2)cc1	1.1	-16	30	-2	-7	2
O=C(NCc1cccnc1)c1ccc(Cn2c(=S)[nH]c3ccc(Br)cc3c2=O)cc1	-0.5	-2	-17	-2	-9	-4
CC(C(=O)Nc1ncn[nH]1)N1C(=O)c2ccccc2C1=O (stereo not drawn)	-0.2	2	6	-2	2	0
Cc1ccc(F)c(S(=O)(=O)NC(=O)C2(C)CCN2C(=O)COc2ccc(Cl)cc2)c1 (stereo not drawn)	-0.7	7	/	/	-1	6
Cc1cc(Cl)c2oc(C(=O)N3CCN(C(=O)c4ccco4)CC3)c(C)c2c1	-1.4	-10	5	-19	1	-13
COc1cc(NC(=O)C(C)Oc2ccccc2)c(C(=O)O)cc1OC (stereo not drawn)	0.0	-2	28	-22	3	0

More records follow.
Compound	TRPML1 agonist	CtBP-E1A inh	TRPML1 blocker	TRPV1 potentiator	D2 PAM	Six1-Eya2 inh
Cc1nc(N2CCN(C)CC2)c2c(C)c(C(=O)Nc3ccc(F)cc3)sc2n1	0.0	-1	7	-18	-31	0
CCc1nnc(NC(=O)Cc2cc(OC)c(OC)c(OC)c2)s1	2.9	5	12	19	-1	10
CCOC(=O)C(NCCc1ccccc1F)(NC(C)=O)C(F)(F)F (stereo not drawn)	0.1	2	-9	4	1	-4
COc1ccccc1NC(=O)COc1ccc(/C=N/NC(=O)CSCc2cc(C)cc(C)c2)cc1	0.4	-7	-11	3	-17	-1
COc1cc(OC)cc(C(=O)OCC(=O)NCc2ccco2)c1	0.8	-10	15	-12	-1	-10
O=C(OCc1ccccc1)c1cccc(-c2nnn(Cc3ccccc3)n2)c1	5.8	62	8	18	-24	57
COc1ncnc(OC)c1NC(=O)c1ccc(F)cc1	-1.2	5	-14	-6	-7	2
COC(=O)c1cc(S(=O)(=O)N2CCCC(C)C2)cn1C (stereo not drawn)	-0.2	/	-3	-8	-6	15
CCC(CC)C(=O)Nc1nnc(SCC(=O)NC2CCCCC2)s1	-0.8	19	5	8	-3	15
O=C(CSc1ccc(-c2cccc([N+](=O)[O-])c2)nn1)NC1CCCC1	-0.1	0	37	5	6	-5

Other entries
Compound	TRPML1 agonist	CtBP-E1A inh	TRPML1 blocker	TRPV1 potentiator	D2 PAM	Six1-Eya2 inh
COc1ccc(CNC(=O)c2cc(S(=O)(=O)N3CCCC3)cn2C)cc1	0.2	4	11	-33	-1	0
COc1ccc(S(=O)(=O)N(CC(=O)N2CCN(C)CC2)c2ccc(C)cc2)cc1OC	3.8	-16	-6	-6	-17	2
CCCCn1c(CN2CCN(c3cccc(Cl)c3)CC2)nc2c1c(=O)n(C)c(=O)n2C	1.2	0	-10	2	-10	-1
O=C(CCC1CCCC1)Nc1ccon1	0.2	4	6	2	1	3
C=CCc1cccc(/C=N/n2c(C)nnc2C)c1O	4.4	-2	1	12	-11	10
CC(C)(C)C(=O)CSc1nnc(-c2cccs2)n1CC1CCCO1 (stereo not drawn)	-0.7	9	11	-10	-1	10
O=C(Cn1cnc2c(OCc3ccccc3)ncnc21)NCc1ccccn1	-0.2	-21	-6	/	/	3
CCn1c(CSc2nc3ccccc3s2)nnc1SCC(=O)c1ccc(O)cc1O	-0.5	9	7	7	-5	-3
O=C(CNC(=O)c1ccc(Br)o1)NNC(=O)c1ccc(Cl)cc1	-0.7	16	4	-1	-21	-3
CC(C)c1cc(C(=O)NNC(=S)NCc2ccco2)c(O)c(C(C)C)c1	-0.9	-6	-8	-15	-9	-16
C=CCN(c1ccccc1C(=O)NCC(=O)OCC)S(=O)(=O)c1ccc(C)cc1	-0.2	1	-13	-15	2	2
